Bioassay records from PubChem.
KCNH2 WT inh = inhibitors of human wildtype KCNH2 potassium channel; U2OS, BacMam KCNH2, thallium flux FluxOr; active compounds read low; activity change, % at 1.84 µM; 340,000 tested, 0.37% active; AID 720551;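 active = maximum activity change below -70%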; note: % is set by controls: 0 for no effect and ±100 for the full control effect
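U2OS cells were transduced with wild-type KCNH2 virus (2.03 x 10^8 / mL) for 4 h at room temperature, then cultured overnight at 37 C. Thallium flux was read with FluxOr dye. Rate constants were normalized to DMSO controls.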
Giardia kill = kills Giardia lamblia; Giardia lamblia trophozoite viability; activity change, % at 7.66 µM, hits read low; 340,000 tested, 0.15% active; AID 540267; in the data active = activity change below about -80%;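 note: parasites exposed to compound for two days anaerobically before the ATP read; % is set by controls: 0 for no effect and ±100 for the full control effect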
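Killing of trophozoites was scored by loss of ATP luminescence after a 48 hrs anaerobic exposure to compounds at 37 deg C, using 100 cells per well.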
TRPV1 agonist = agonists of human vanilloid receptor 1 (TRPV1); AID 540275; TRPV1-expressing cells, Fluo-8 calcium influx, agonist mode; Q8NER1; activation, % at 8.33 µM; 320,000 tested, 0.19% active; in the data active = activation above about 80%; note: 0% is about no effect
Target sequence (Q8NER1 whole entry, looked up): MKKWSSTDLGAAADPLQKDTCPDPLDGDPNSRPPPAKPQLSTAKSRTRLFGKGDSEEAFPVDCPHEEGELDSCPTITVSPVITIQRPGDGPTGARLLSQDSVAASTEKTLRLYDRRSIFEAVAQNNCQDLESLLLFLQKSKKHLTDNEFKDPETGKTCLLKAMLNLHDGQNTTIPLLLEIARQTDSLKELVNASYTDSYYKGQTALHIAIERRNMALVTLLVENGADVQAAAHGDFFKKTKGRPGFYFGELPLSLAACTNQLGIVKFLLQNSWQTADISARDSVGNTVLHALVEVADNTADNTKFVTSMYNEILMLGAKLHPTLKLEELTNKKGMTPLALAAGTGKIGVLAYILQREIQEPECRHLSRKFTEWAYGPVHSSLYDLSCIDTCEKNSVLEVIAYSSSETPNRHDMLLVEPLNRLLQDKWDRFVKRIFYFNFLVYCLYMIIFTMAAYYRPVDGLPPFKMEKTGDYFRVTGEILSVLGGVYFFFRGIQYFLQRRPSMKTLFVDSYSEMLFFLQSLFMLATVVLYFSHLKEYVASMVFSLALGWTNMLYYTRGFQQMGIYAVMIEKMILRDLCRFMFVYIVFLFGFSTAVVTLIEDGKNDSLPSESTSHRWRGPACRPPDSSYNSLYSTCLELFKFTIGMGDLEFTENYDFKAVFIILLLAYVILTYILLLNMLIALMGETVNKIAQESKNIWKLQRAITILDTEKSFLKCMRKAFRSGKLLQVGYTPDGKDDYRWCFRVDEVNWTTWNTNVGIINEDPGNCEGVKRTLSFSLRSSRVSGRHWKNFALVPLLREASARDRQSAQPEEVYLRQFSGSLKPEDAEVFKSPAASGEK
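Fluo-8 calcium influx in TRPV1-expressing cells, kinetic read (ex 480/em 520 nm). Compound added and read 3 min for agonist activity, followed by capsaicin at EC20 final and 2 min further read for enhancement.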
Coupling enz = inhibits coupling enzyme system, counter-screen for aldolase hits | coupling enzyme system counterscreen, AmpLite Red fluorescence | activity change, negative = inhibition, % at 58.2 µM, hits read low | 290,000 tested, 0.67% active; in the data active = activity change below about -30%; note: % is set by controls: 0 for no effect and ±100 for the full control effect
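Fluorescence at 525 nm excitation and 598 nm emission measured inhibition of the coupled detection system without aldolase. Compounds (at 57.5 uM final) were preincubated 10 min at room temperature with coupling enzyme reagent before a 20 min substrate/AmpLite Red step.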
USP2a block = inhibitors of human ubiquitin-specific protease USP2a; USP2 core, Ub-CHOP2 coupled fluorogenic reporter, 485/531; Potency, µM (top dose mostly 38.3 µM), without a hit: top-dose activity change, negative = inhibition, most hits filed as inhibitors; 330,000 tested, 0.01% active; AID 463254; active = well fitted inhibition curve with a large enough effect;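 note: potency is the fitted concentration of half-maximal effect; plate controls were DMSO wells for no effect and full inhibition by NEM control for full effect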
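USP2 core (10nM final) preincubated 30min RT with compound in 20mM Tris-HCl pH 8.0, 2mM CaCl2, 2mM beta-mercaptoethanol, 0.05% CHAPS; 25nM Ub-CHOP2 plus 25nM reporter substrate added, fluorescence (Ex485/Em531) read after 60min.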
KCNH2 3.1 inh = inhibitors of human KCNH2 3.1 potassium channel isoform; U2OS KCNH2 3.1, thallium flux FluxOr; active compounds read low; activity change, % (tested at about 1.8 µM); 340,000 tested, 0.95% active;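 active = maximum activity change below -70%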;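 note: thallium influx rate constant from kinetic fluorescence after stimulation buffer; % is set by controls: 0 for no effect and ±100 for the full control effect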
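We transduce U2OS cells with the mutant 3.1 virus, culture them overnight, load FluxOr with Red40 quencher for 45 min, then add stimulation buffer and read kinetically for 2 min to derive a normalized rate constant.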
An asterisk follows results filed as active; & = joins results of further samples. A portion of the library; rates above refer to the full screens.

`CC(C)NCC(O)COc1ccc(CCOCC2CC2)cc1` (centres undefined) gave KCNH2 WT inh -16, Giardia kill -28, TRPV1 agonist 0&3&1, Coupling enz -1&2&3, USP2a block 3%&0%&5% and KCNH2 3.1 inh 6.
For CS(=O)(=O)Nc1ccc([N+](=O)[O-])cc1Oc1ccccc1 the results were KCNH2 WT inh -19, Giardia kill 0&-14, TRPV1 agonist 0, Coupling enz 6&8&7&7, USP2a block 5% and KCNH2 3.1 inh -6.
Screening COC(=O)[C@H]1[C@@H]2C[C@@H]3c4[nH]c5ccccc5c4CCN3C[C@H]2CC[C@H]1O returned Coupling enz -9.
For CC(C)NC[C@@H](O)COc1ccc(CCOCC2CC2)cc1 the results were Coupling enz 2&3.
Cc1ccc(-c2nc3ccccc3c(=O)n2CCN2CCOCC2)cc1 was read as KCNH2 WT inh -3, Giardia kill 11, TRPV1 agonist 0, Coupling enz 1, USP2a block 0% and KCNH2 3.1 inh 4.
Screening c1cc(-c2ccncc2)ccn1 returned KCNH2 WT inh -24, Giardia kill 12, TRPV1 agonist 2, Coupling enz 4, USP2a block 3% and KCNH2 3.1 inh 2.
`COc1cc(C(=S)N2CCOCC2)cc(OC)c1OC` gave KCNH2 WT inh -10, Giardia kill 2, TRPV1 agonist -3, Coupling enz 2, USP2a block 11% and KCNH2 3.1 inh 7.
`CCCc1cc(=O)[nH]c(=S)[nH]1` gave KCNH2 WT inh -9, Giardia kill 5, TRPV1 agonist 2, Coupling enz -5&0&2, USP2a block 0% and KCNH2 3.1 inh -2.
Screening COC(=O)C1C(O)CC[C@@H]2CN3CCc4c([nH]c5ccccc45)C3C[C@@H]12 (some centres undefined) returned Coupling enz 0&2.

7 entries already listed, ordered by formula weight, ascending:
Screening c1cc(-c2ccncc2)ccn1 returned KCNH2 WT inh -24, Giardia kill 12, TRPV1 agonist 2, Coupling enz 4, USP2a block 3% and KCNH2 3.1 inh 2.
`CCCc1cc(=O)[nH]c(=S)[nH]1` gave KCNH2 WT inh -9, Giardia kill 5, TRPV1 agonist 2, Coupling enz -5&0&2, USP2a block 0% and KCNH2 3.1 inh -2.
`COc1cc(C(=S)N2CCOCC2)cc(OC)c1OC` gave KCNH2 WT inh -10, Giardia kill 2, TRPV1 agonist -3, Coupling enz 2, USP2a block 11% and KCNH2 3.1 inh 7.
`CC(C)NCC(O)COc1ccc(CCOCC2CC2)cc1` (centres undefined) gave KCNH2 WT inh -16, Giardia kill -28, TRPV1 agonist 0&3&1, Coupling enz -1&2&3, USP2a block 3%&0%&5% and KCNH2 3.1 inh 6.
For CS(=O)(=O)Nc1ccc([N+](=O)[O-])cc1Oc1ccccc1 the results were KCNH2 WT inh -19, Giardia kill 0&-14, TRPV1 agonist 0, Coupling enz 6&8&7&7, USP2a block 5% and KCNH2 3.1 inh -6.
Cc1ccc(-c2nc3ccccc3c(=O)n2CCN2CCOCC2)cc1 was read as KCNH2 WT inh -3, Giardia kill 11, TRPV1 agonist 0, Coupling enz 1, USP2a block 0% and KCNH2 3.1 inh 4.
Screening COC(=O)C1C(O)CC[C@@H]2CN3CCc4c([nH]c5ccccc45)C3C[C@@H]12 (some centres undefined) returned Coupling enz 0&2.
